D2 potentiator – positive allosteric modulators of human D2 dopamine receptor; DiscoveRx D2 beta-arrestin cells, luminescence, 90 min; 100% = 57 uM dopamine signal; potentiation, % (test concentration not listed); 360,000 tested, 0.23% active; active = potentiation of 50% or more; inconclusive = 30% to 50%; inactive = 30% or less;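 also: compound concentration not given in the record; tested on top of an EC20 dose of dopamine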
Target sequence (P14416 whole entry, looked up): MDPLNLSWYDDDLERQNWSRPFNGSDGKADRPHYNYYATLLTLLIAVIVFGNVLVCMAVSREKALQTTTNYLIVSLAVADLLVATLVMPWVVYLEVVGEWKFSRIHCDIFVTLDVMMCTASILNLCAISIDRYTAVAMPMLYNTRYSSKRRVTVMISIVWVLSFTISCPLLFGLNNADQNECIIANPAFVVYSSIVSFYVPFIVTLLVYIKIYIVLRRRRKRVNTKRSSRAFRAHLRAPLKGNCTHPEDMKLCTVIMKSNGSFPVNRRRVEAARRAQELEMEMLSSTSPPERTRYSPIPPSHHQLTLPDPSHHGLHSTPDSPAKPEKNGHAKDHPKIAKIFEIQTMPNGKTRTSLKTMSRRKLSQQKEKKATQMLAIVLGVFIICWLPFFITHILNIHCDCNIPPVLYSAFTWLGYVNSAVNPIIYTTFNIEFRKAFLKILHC
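PathHunter D2 cells, attached overnight at 37 deg C, received compound in DMSO plus dopamine at EC20 (50 nM final) for 90 min at 37 deg C. Beta-arrestin recruitment was read as luminescence after 1 h with detection reagent at ambient temperature.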
TRPML1 ag – agonists of human TRPML1 channel. 410,000 tested, 0.12% active. TRPML1-expressing cells, Ca2+ dye fluorescence, FDSS; host cell line not named in the record; reference of the full effect not given here. Q9GZU1. AID 624414. activation, % (concentration not given with the values); in the data active = activation above about 50%; inconclusive = about 30% to 50%; inactive = below about 30%; also: 0% is about no effect; the text of the record puts the active cut at 80%
Target sequence (Q9GZU1 whole entry, looked up): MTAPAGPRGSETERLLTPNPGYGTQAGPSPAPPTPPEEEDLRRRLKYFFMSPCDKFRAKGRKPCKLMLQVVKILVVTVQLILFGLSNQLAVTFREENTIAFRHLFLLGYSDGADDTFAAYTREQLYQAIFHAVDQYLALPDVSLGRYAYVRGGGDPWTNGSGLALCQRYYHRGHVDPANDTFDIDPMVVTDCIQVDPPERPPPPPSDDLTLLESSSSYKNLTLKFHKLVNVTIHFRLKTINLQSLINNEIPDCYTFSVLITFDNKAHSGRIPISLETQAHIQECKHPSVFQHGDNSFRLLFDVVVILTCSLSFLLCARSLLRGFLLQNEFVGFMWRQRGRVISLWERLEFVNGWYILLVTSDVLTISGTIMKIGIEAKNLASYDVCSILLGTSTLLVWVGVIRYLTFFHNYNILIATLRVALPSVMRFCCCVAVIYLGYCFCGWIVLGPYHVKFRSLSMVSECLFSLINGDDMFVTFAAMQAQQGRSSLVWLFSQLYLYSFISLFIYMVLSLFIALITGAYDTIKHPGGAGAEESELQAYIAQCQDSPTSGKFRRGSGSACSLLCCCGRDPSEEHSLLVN
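Agonist activity was taken from a 110 s kinetic Ca2+ dye read on the FDSS after pinning compounds onto TRPML1-DL cells. The cells were seeded at 1,500/well with Tet inducer, incubated about 16 h, then dye-loaded at room temperature.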
Six1-Eya2 inh – Six1/Eya2 interaction inhibition | Q15475+O00167 | AlphaScreen GST-Six1/His-Eya2 binding, biochemical; stronger effect = lower value; control for the full effect not named in the record | activity change, % (test concentration not listed) | 360,000 tested, 0.56% active; in the data active = activity change below about -65%; inconclusive = about -30% to -65%; inactive = above about -30%; also: % is scaled to controls: 0 for no effect and ±100 for the full control effect; compound concentration not given in the record
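Six1/Eya2 binding was read as AlphaScreen signal after compounds were pinned into GST-Six1 plus His-tagged Eya2 (5X stock 250/500 nM) in pH 8.0 Tris/NaCl/TCEP buffer, beads added, then incubated 1 h, 37 C, dark.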
CtBP-E1A blk – inhibitors of CtBP/E1A interaction; AlphaScreen GST-E1A/His-CtBP binding, 1536-well; stronger effect = lower value; control for the full effect not named in the record; activity change, % (test concentration not listed); 340,000 tested, 0.49% active; AID 651724; in the data active means activity change below about -65%; inconclusive means about -30% to -65%; inactive means above about -30%; also: % is scaled to controls: 0 for no effect and ±100 for the full control effect; compound concentration not given in the record
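AlphaScreen with 125 nM GST-E1A and 125 nM His-CtBP (5X stocks) in Tris pH 8.0, 300 mM NaCl, BSA, Tween 20, TCEP. Compounds preincubated 2 h at 37 deg C, then glutathione donor/nickel acceptor beads added for 1 h at 37 deg C in dark.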
D2 agonist – activates the human D2 dopamine receptor; P14416; 360,000 tested, 0.084% active; activation, % (no concentration beside the values); DiscoveRx PathHunter D2 beta-arrestin, luminescence, 90 min; 100% = 57 uM dopamine signal; in the data active = activation above about 40%; inconclusive = about 15% to 40%; inactive = below about 15%; also: compound concentration not given in the record; the text of the record calls up to 30% inactive
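DiscoveRx PathHunter D2 beta-arrestin cells (2,100/well) attached overnight, then compound-stimulated 90 min at 37 C in HBSS/10 mM HEPES/0.1% Tween-20 buffer; beta-galactosidase complementation read by luminescence after 1 h at ambient temperature. Dopamine 57 uM final (EC100) as control.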
PINK1 modulator – PINK1 expression modulation. PINK1 immunofluorescence, high-content cytometry, 24 h. Potency, µM (titrated, usually from 76.6 µM), for the others: at the top dose activation (PINK1 increase), most hits filed as activators. 410,000 tested, 0.2% active; active = well fitted activation curve with a large enough effect; inconclusive = small, poorly fitted or top-dose-only effect; inactive = flat fitted curve, though single readings scatter; cell line not stated here;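 also: potency is read from the fitted curve at half-maximal effect; % of control where 0% means no effect; nearly all actives have a fitted effect of over 65% in size; a mitochondrial uncoupler was the plate control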
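Compound titrations (5 concentrations, 24 h) on a stable cell line; DMSO and CCCP controls. Endpoint: fixed-cell PINK1 immunofluorescence with mitochondrial, cell and nuclear markers, scanned by microplate cytometer.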
Active calls of the source: *; u = inconclusive; x = no result given; & = joins results of further samples; [ ] = remark or other dose.

SMILES	D2 potentiator	TRPML1 ag	Six1-Eya2 inh	CtBP-E1A blk	D2 agonist	PINK1 modulator
CCn1c(SCC(=O)Nc2cccc(NC(=O)c3ccco3)c2)nnc1-c1cccs1	-10	2.5	0	-2	-17	-1.0%
COC(=O)[C@@]1(Cc2ccccc2)[C@H]2C(=O)N(C)C(=O)[C@H]2[C@H]2CN=C(SCc3ccc(Cl)cc3)N21	-6	2.4	-7	4	-1.6	-1.4%
COCC(C)NC(=O)c1ccccc1OC(C)=O (stereo not drawn)	-11	-0.9	0	0	-3.0	3.7%
Cc1ccc(CNC(=O)CN(CCc2ccccc2)S(C)(=O)=O)cc1	-1	0.4	7	x	-4.1	1.1%
COc1ccc(-c2csc(NC(=S)NC(=O)/C=C/c3ccccc3)n2)cc1Br	-5	-0.1	2	-2	-8.9	13%
COc1ccc(NC(=O)N(C)[C@H]2C[C@H]3c4[nH]c5ccccc5c4CCN3C(=O)[C@H]2CO)cc1	0	-0.5	-8	-6	-8.9	3.0%
COc1ccc(CCC(=O)Nc2cc(Cl)ccc2OC)cc1	-3	1.6	6	2	1.6	1.2%[38.3 µM]
CCC(=O)Nc1ccc(C(=O)CN2C(=O)NC3(CCOc4ccccc43)C2=O)cc1 (stereo not drawn)	-3	-0.6	6	x	1.9	-0.1%
O=C(CN1C(=O)c2cccnc2Oc2ccc(Cl)cc21)N1CCCC1	-8	-0.5	-1	5	-5.5	2.2%
COC(=O)c1ccc(NS(=O)(=O)NC(=O)c2cn(C)c3ccccc23)cc1	-4	0.8	5	x	0.6	2.6%
Cc1ccc(S(=O)(=O)NCCN2CCOCC2)c(C)c1C	-11	1.8	6	5	-1.6	1.9%
COc1ccc(N=C2SC(C(=O)Nc3ccc4c(c3)OCO4)CC(=O)N2C)cc1 (stereo not drawn)	-2&-6	-0.6&0.7	-1&-17	0&-6	1.2&-0.8	0.3%&-0.3%
Cc1ccc(C)c(N(CC(=O)NC(C)(C)C)C(=O)CCC(=O)Nc2nccs2)c1	-2	1.4	5	-6	-5.2	2.2%
CCC(C)[C@H](NS(=O)(=O)c1ccc(C)cc1)C(=O)N1CCC(C(=O)N[C@@H](Cc2ccccc2)C(=O)O)CC1 (stereo partly drawn)	-8	-1.0	2	3	1.3	-0.1%
O=C(CSCC(=O)N1CCN(c2ccccc2)CC1)Nc1nc(-c2ccc(Cl)s2)cs1	-2	-0.2	-17	-14	-1.3	2.4%
CCS(=O)(=O)c1ccc(C(=O)Nc2ccccc2OC)c(Cl)c1Cl	-18	-0.2	-1	-4	-2.1	-0.2%
CC1CCC2(CC1)NC(=O)N(CC(=O)NC(=O)Nc1ccc3c(c1)OCCO3)C2=O (stereo not drawn)	-4	-0.5	-2	3	-1.1	5.5%
COc1cccc(NC(=O)C(NCC(C)(C)CN(C)C)c2ccccc2)c1 (stereo not drawn)	-15	0.2	2	2	-1.6	-0.8%
COc1ccc([N+](=O)[O-])cc1NC(=O)CCN1CCOCC1	1	-0.8	1	4	-0.5	1.8%
O=C(CN1C(=O)/C(=C\c2ccccc2F)SC1=S)Nc1nc2ccccc2s1	-5	0.0	-16	-10	-5.8	-0.8%
CC(C)[C@@H](C(=O)OCC(=O)Nc1ccc2c(c1)OCO2)N1C(=O)c2ccccc2C1=O	-15	-1.1	-11	-1	0.9	-2.0%
Cc1cc(C)cc(Cn2c3ccc(NC(=O)NCCc4cccs4)cc3c(=O)n2C)c1	-2	0.8	-8	-7	7.9	0.2%
COc1cccc(C(=O)NCC(=O)N/N=C(\C)Cc2ccccc2)c1	-21	-0.4	-1	6	-16	-1.1%
O=[N+]([O-])c1cc(C(F)(F)F)cc([N+](=O)[O-])c1N1CCN(S(=O)(=O)c2ccccc2)CC1	u	0.0	-23	-26	5.1	1.6%
COc1ccc(CCC(C)N2CCC(CO)(Cc3ccccc3)CC2)cc1 (stereo not drawn)	-9	1.3	7	4	-1.5	1.3%
CCCCN1CCCCC1(C)C(=O)NCc1cccs1 (stereo not drawn)	-8	-0.6	3	8	-2.1	1.4%
COc1cc(SC)ccc1C(=O)NC1CCCCC1	-12	0.3	-1	5	-5.0	-3.6%
c1cc(C2OCCN2CC2COC3(CCCC3)O2)ccn1 (stereo not drawn)	-17	-0.6	10	9	-3.0	2.5%
Cc1csc(NC(=O)c2cc(-c3ccccc3)nc3ccccc23)n1	-15	-0.3	-7	-26	-2.7	u
COc1cc(C(O)c2nc(-c3ccc(C)c(C)c3)cs2)ccc1F (stereo not drawn)	-2	0.7	14	0	4.7	8.2%
Cc1ccc(NC(=O)/C=C/C(=O)O)c(NC(=O)c2ccccc2)c1	-1	-0.6	-6	x	1.9	-0.3%
O=[N+]([O-])c1cccc(CN2CCN(S(=O)(=O)Cc3ccccc3)CC2)c1	-35	-0.1	22	0	-3.7	3.9%
COc1cccc(C(=O)Nc2ccc(S(=O)(=O)Nc3nccc(C)n3)cc2)c1	-14	-0.5	5	10	-5.6	3.7%
COc1ccccc1C(=O)N1CCC(N2CCN(c3ccccc3)CC2)CC1	-6	0.2	-2	12	u	0.1%
COc1ccc(NC(=O)c2cc(S(=O)(=O)NCC3COc4ccccc4O3)ccc2F)cc1 (stereo not drawn)	13	0.6	0	4	1.9	-0.6%
C/C(N)=C(/C#N)C(=O)COC(=O)CNS(=O)(=O)c1ccc(F)c(F)c1F	-2	0.2	5	-4	-2.9	2.3%
CC1CC(C)CN(S(=O)(=O)c2ccc3c(c2)oc(=O)n3CC(=O)NCCCOC(C)C)C1 (stereo not drawn)	5	-0.3	5	x	-2.7	1.8%
CCS(=O)(=O)C1C(=O)N(C)C(S(=O)(=O)CC)C(=O)N1C (stereo not drawn)	-6	-0.8	-4	-5	-3.4	-0.2%
CCOC(=O)c1ccccc1NC(=O)COC(=O)CCC(=O)N1CCOCC1	-15	0.0	13	6	0.6	-0.3%
O=C(CN1CCN(S(=O)(=O)N2CCCCC2)CC1)Nc1ccc(Br)cc1	-15	-0.8	3	-1	0.0	-0.3%

Four entries picked at random from the list so far, as already listed:
SMILES	D2 potentiator	TRPML1 ag	Six1-Eya2 inh	CtBP-E1A blk	D2 agonist	PINK1 modulator
O=C(CN1CCN(S(=O)(=O)N2CCCCC2)CC1)Nc1ccc(Br)cc1	-15	-0.8	3	-1	0.0	-0.3%
COc1ccc(CCC(C)N2CCC(CO)(Cc3ccccc3)CC2)cc1 (stereo not drawn)	-9	1.3	7	4	-1.5	1.3%
COc1cccc(C(=O)Nc2ccc(S(=O)(=O)Nc3nccc(C)n3)cc2)c1	-14	-0.5	5	10	-5.6	3.7%
COc1cc(SC)ccc1C(=O)NC1CCCCC1	-12	0.3	-1	5	-5.0	-3.6%

Further entries.
SMILES	D2 potentiator	TRPML1 ag	Six1-Eya2 inh	CtBP-E1A blk	D2 agonist	PINK1 modulator
COCC(C)NCc1cccc(OC)c1OC (stereo not drawn)	-22	0.1	0	0	-3.0	-2.0%
NC(=O)c1cc(S(=O)(=O)NCc2ccc(F)cc2)cs1	-4	-0.8	4	x	3.9	-0.4%
C[C@@H]1O[C@@H](Oc2c(-c3ccc(O)c(O)c3)oc3cc(O)cc(O)c3c2=O)[C@H](O)[C@H](O)[C@H]1O	11&-9	-0.7&-0.2	2&-16	13&-5	-5.9&-5.3	2.0%&-0.4%
CC1=NN(c2ccc([N+](=O)[O-])cc2)C(=O)/C1=C\N(C)C	-32	0.6	-16	-14	-6.1	2.0%
Cc1csc(NC(=S)NC(=O)c2ccccc2)n1	-17	0.0	-5	-3	-8.3	0.3%
COc1ccc(-c2nn(C)c3sc(C(=O)NCCN(C)C)cc23)cc1OC	-10	0.1&-1.0	u	u	-1.5	-1.7%&-0.3%
O=S(=O)(Nc1nc2ccccc2nc1OCC(F)(F)F)c1cccs1	0	0.2	0	4	2.0	0.6%
COc1ccccc1/C=N/NC(=O)CNC(=O)c1ccc(S(=O)(=O)N2CCCC2)cc1	-8	0.1	1	1	0.4	3.3%
NS(=O)(=O)c1ccc(CCNC(=O)CNC(=O)Cc2ccccc2)cc1	0	0.4	0	9	-1.2	2.3%
N#Cc1ccc(N2Cc3ccccc3C2=NC(=O)c2cccs2)cc1	-9	1.8	3	1	0.9	-3.9%
CCOC(=O)c1sc(NC(=O)c2cc3n(n2)C(C(F)(F)F)CC(c2ccccc2)N3)c(C(=O)OCC)c1C (stereo not drawn)	-3	0.9	4	1	-1.8	x
CCCCSc1nnc2c(n1)OC=Nc1ccccc1-2	-3	1.4	-2	x	-6.0	2.6%
CCC1(C)COC2(OC1)C(=O)Nc1ccccc12 (stereo not drawn)	7	0.6	-16	-13	-6.4	-0.8%
COc1cccc(C(=O)Nc2ncc3c(n2)CC(c2ccc(OC)cc2OC)CC3=O)c1 (stereo not drawn)	1	3.6	-20	-20	-0.1	3.0%[38.3 µM]
Cc1cccc(C(=O)Nc2ccc(C(=O)N/N=C/c3ccc4c(c3)OCO4)cc2)c1	-5	2.6	0	24	-0.5	16%
CCCCn1c(SCC(N)=O)nc2sc3c(c2c1=O)CCC3	1	0.4	-2	-2	-1.4	16%
Cc1cc(C)n(CCNC(=O)[C@H]2O[C@@H](n3cnc4c(N)ncnc43)[C@H](O)[C@@H]2O)n1	2	-0.4	1	1	-2.1	3.2%
Cc1csc(N/N=C\c2cccnc2)n1	-3	-0.4	2	x	5.7	1.0%
CC1=NN(c2ccccc2)C(=O)/C1=C/c1cccc(C)c1	-5	-0.4	-11	-3	-3.9	4.5%
O=c1[nH]c(-c2ccccn2)nc2sc(-c3ccccc3)cc12	-32	1.5	u	0	-2.2	-1.4%
COc1ccc(C(=O)Nc2ccccc2)cc1NC(=O)c1cccs1	-3	2.7	-3	u	-3.0	1.5%
COCCNC(=O)c1onc(CSc2cc(C)cc(C)c2)c1C(=O)O	-5	-0.7	-3	4	-0.6	0.9%
COc1ccc(/C=N/Nc2ccccc2C(=O)O)cc1	-9	-1.4	0	-13	0.7	1.7%
O=C(CCc1nc2ccccc2c(=O)[nH]1)Nc1nnc(SCc2ccccc2F)s1	-12	-0.4	2	-16	-1.6	u
O=C(CCc1nnc(C2(c3ccc(Cl)cc3)CCC2)o1)NC1CC1	-3	0.4	3	7	-0.3	0.6%
O=C(Nc1ccccc1C(F)(F)F)N1CCC(n2c(=O)[nH]c3ccccc32)CC1	-11	0.4	-1	1	-2.5	0.3%
COc1ccc(C(=O)Cn2cc[n+](C)c2)cc1	0	0.4	2	8	2.6	-1.3%
CC(C)COc1ccc(CN=C(N)N=C(N)N)cc1Cl	-4	0.2	6	3	-1.6	5.0%
O=S(=O)(Nc1ccc(Br)cn1)c1ccc2ccccc2c1	2	0.5	-2	-14	-5.5	0.8%
CCCNC(=S)N1CCN(c2nc(-c3ccc(C)cc3)cs2)CC1	-8	0.8	-11	-2	7.0	-1.3%
COc1cccc2c1C(=O)C=C(C)C2=O	-1	-0.4	-10	-14	1.7	5.3%
O=C(NNC(=O)C1CC=CCC1)c1ccccc1O (stereo not drawn)	-1	-0.8	-1	3	0.3	1.1%

Source: PubChem (National Center for Advancing Translational Sciences (NCATS))
